From PubChem BioAssay
PV pol inh = inhibitors of poliovirus RNA polymerase binding and polymerization. P03300. poliovirus polymerase elongation, fluorescence polarization; stronger effect = lower value. % elongation, % (compound at 16.7 µg/mL). hit rate 0.66% among 150,000; in the data active = % elongation below about 90%; note: some results filed as inactive read as strong as hits
Target sequence (P03300 1749-2209 limits assumed): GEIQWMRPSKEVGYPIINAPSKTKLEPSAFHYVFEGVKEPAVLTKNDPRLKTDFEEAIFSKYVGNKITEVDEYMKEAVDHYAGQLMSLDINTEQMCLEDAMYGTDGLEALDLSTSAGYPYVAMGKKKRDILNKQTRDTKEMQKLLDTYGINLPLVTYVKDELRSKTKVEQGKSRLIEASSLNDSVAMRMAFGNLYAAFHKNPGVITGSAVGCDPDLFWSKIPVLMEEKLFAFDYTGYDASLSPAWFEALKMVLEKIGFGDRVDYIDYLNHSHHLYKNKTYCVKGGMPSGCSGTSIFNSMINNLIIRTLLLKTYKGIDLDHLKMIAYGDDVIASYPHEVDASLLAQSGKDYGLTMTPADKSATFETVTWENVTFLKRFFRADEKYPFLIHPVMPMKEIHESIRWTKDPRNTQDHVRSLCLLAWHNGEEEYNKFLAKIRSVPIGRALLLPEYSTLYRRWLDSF
MenB inh = inhibitors of Mycobacterium tuberculosis MenB enzyme; P9WNP5; MenB enzyme assay, absorbance read-out; some hits fall short of the stated cut; inhibition, %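 (about 12 µg/mL by stock and volumes)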; hit rate 0.43% among 100,000; AID 540299;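 active = mean of two replicates above 30%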;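 note: 0% = no compound and 100% = wells with inactive enzyme; the first replicate is given; strong numbers were not always called active; inactives centre near -10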
Mtb MbtI inh = inhibitors of Mycobacterium tuberculosis siderophore enzyme MbtI; P9WFX0; purified MbtI enzyme, fluorescence intensity read-out; inhibition, %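 (about 17 µg/mL by stock and volumes)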; hit rate 0.89% among 100,000;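 active = above 50% in both replicates, above 80% if mildly self-fluorescent; inactive = the rest, strongly fluorescent compounds included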;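 note: 0% = mean of negative and 100% = mean of positive controls; one replicate is shown; some compounds called inactive have numbers as strong as hits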
Target sequence (P9WFX0 whole entry, looked up): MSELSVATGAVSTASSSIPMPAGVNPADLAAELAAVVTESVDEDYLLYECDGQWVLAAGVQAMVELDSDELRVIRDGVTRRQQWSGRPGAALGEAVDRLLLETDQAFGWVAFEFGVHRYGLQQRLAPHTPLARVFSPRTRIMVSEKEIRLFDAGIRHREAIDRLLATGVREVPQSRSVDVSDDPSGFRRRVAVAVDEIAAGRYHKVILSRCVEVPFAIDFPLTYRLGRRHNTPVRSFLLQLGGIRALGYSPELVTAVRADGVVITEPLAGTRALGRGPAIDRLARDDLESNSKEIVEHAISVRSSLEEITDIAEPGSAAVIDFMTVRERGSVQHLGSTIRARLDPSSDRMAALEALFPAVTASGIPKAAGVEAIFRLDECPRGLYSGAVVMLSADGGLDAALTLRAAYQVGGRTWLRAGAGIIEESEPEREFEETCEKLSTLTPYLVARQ
PV pol inh intensity = second read-out of PV pol inh, no call of its own (marks repeat the call); % elongation; measured here: total intensity read-out; formula for this scale not given here;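 total fluorescence in place of polarization; lower means less elongation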
Numbers without * were called inactive; x = no result given; & = joins results of further samples.

cpd | smiles | PV pol inh | PV pol inh intensity | MenB inh | Mtb MbtI inh
1 | O=C(NCc1ccccn1)c1cccc(C(F)(F)F)c1 | 103 | 104 | -9 | -16
2 | CN1c2ccccc2C(C)(C)C12Cc1cc(NS(=O)(=O)c3ccc(Cl)cc3)ccc1O2 (stereo not drawn) | 102 | 107 | -20 | -2
3 | CN1C(=O)/C(=C/c2ccc(I)o2)C(=O)NC1=S | 95 | 89 | -116 | 83*
4 | CCNc1ncnc2sc3c(c12)CCC3 | 105 | 99 | -62 | 26
5 | O=C1NC(c2ccccc2)C(C(=O)c2ccccc2)C(O)(C(F)(F)F)N1 (stereo not drawn) | 100 | 105 | 3 | 2
6 | O=C1/C(=C/c2ccc(N3CCOCC3)cc2)Cc2ccccc21 | 115 | 133 | -9 | 13
7 | CC(C)Sc1nc(-c2ccccc2)cc(=O)[nH]1 | 102 | 100 | -1 | 11
8 | N#CCn1c(CSc2ccc3c(c2)OCCO3)nc2ccccc2c1=O | 103 | 105 | -6 | 6
9 | Cc1ccc(CNC(=S)NCCO)cc1 | 104 | 110 | 11 | -3
10 | Cc1cccc(Cl)c1OCCN1CCN(C)CC1 | 100 | 106 | -7 | 100
11 | CCCCCCCCCCC/C=C\C/C=C\CCCC(=O)O | 100&98 | 103&102 | 5 | -4
12 | O=C(NC1CCCCC1)N1CCn2cccc2C1Cc1ccccc1 (stereo not drawn) | 99 | 97 | 7 | 21
13 | CC1(C)NC(=O)N(c2ccc([N+](=O)[O-])c(C(F)(F)F)c2)C1=O | 100&99 | 100&100 | -5&-1 | -16&2
14 | O=C(NCCc1ccc(Cl)cc1)c1ccc2c(c1)ncn2C1CCCC1 | 101 | 101 | 4 | -2
15 | O=C(Nc1ccccc1)Nc1ccc(Cl)cc1SCc1ccccc1 | 97 | 96 | -10 | -2
16 | Cc1ccc(S(=O)(=O)C2(C(=O)NC3CCCCC3)CC2)cc1 | 104 | 105 | 9 | -1
17 | CCOC(=O)c1ccc(NC(=O)Cn2cc(C(=O)CC)c3ccccc32)cc1 | 102 | 104 | -8 | -2
18 | CCCc1c(O)c2ccccc2[nH]c1=O | 107 | 97 | -46 | x
19 | C=CCn1c(SCCC(=O)O)nnc1-c1cccs1 | 98 | 100 | -2 | 20
20 | CCOC(=O)N1CCN(C(=O)c2ccc(CS(=O)(=O)c3ccccc3OC)o2)CC1 | 98 | 96 | -6 | 7
21 | S=C(Nc1cccc(Cl)c1)Nc1cccc(Cl)c1 | 102 | 96 | -5 | 6
22 | CCN(c1ccccc1)S(=O)(=O)c1ccc(-n2cnc3cc(C)c(C)cc32)nc1 | 103 | 107 | -21 | -1
23 | O=C1/C(=C/c2cn[nH]c2-c2ccc(F)cc2)CS/C1=C\c1cn[nH]c1-c1ccc(F)cc1 | 106 | 111 | -27 | -5
24 | COc1ccc(Cn2ccc3nc(C)c(C(=O)NCc4ccccc4)cc3c2=O)cc1 | 102 | 104 | -27 | 1
25 | CCOc1ccc(CNc2ccc(N3CCCC3)cc2)cc1 | 105 | 100 | 1 | 18
26 | OC1(c2ccccc2)CCN(Cc2ccccc2)[C@@H]2CCCC[C@@H]21 (stereo partly drawn) | 103 | 103 | -10 | x
27 | Cc1onc(-c2ccccc2)c1C(=O)OCc1ccc(Cl)cc1 | 103 | 97 | -10 | 1
28 | CCCc1cc(O)c2c(C)cc(=O)oc2c1 | 106 | 109 | -16 | x
29 | COc1ccc(NCC(=O)n2c3ccccc3c3ccccc32)cc1 | 104 | 107 | -27 | -3
30 | CNC(=O)N(O)c1ccccc1 | 102 | 103 | 13 | -12

5 compounds already listed, arranged by count of non-hydrogen atoms, ascending.
cpd | smiles | PV pol inh | PV pol inh intensity | MenB inh | Mtb MbtI inh
9 | Cc1ccc(CNC(=S)NCCO)cc1 | 104 | 110 | 11 | -3
28 | CCCc1cc(O)c2c(C)cc(=O)oc2c1 | 106 | 109 | -16 | x
19 | C=CCn1c(SCCC(=O)O)nnc1-c1cccs1 | 98 | 100 | -2 | 20
29 | COc1ccc(NCC(=O)n2c3ccccc3c3ccccc32)cc1 | 104 | 107 | -27 | -3
5 | O=C1NC(c2ccccc2)C(C(=O)c2ccccc2)C(O)(C(F)(F)F)N1 (stereo not drawn) | 100 | 105 | 3 | 2

Two compounds from above, showing only PV pol inh, Mtb MbtI inh and MenB inh.
entry	compound	PV pol inh	Mtb MbtI inh	MenB inh
16	Cc1ccc(S(=O)(=O)C2(C(=O)NC3CCCCC3)CC2)cc1	104	-1	9
21	S=C(Nc1cccc(Cl)c1)Nc1cccc(Cl)c1	102	6	-5

The results go on:
cpd | smiles | PV pol inh | PV pol inh intensity | MenB inh | Mtb MbtI inh
31 | O=C(CSc1nc2ccccc2s1)c1ccc2c(c1)OCO2 | 104 | 100 | 6 | 14
32 | CCCCNc1nc2cccnc2s1 | 104 | 97 | -11 | x
33 | S=C(NCc1ccco1)Nc1nn(Cc2ccc(Cl)cc2Cl)cc1Cl | 102 | 99 | -46 | 43
34 | O=C(COC(=O)Cc1c[nH]c2ccccc12)Nc1ccc(Cl)cc1F | 104 | 109 | x | -14
35 | COC(=O)CCCN | 102 | 110 | -12 | -10
36 | COC(=O)c1ccc(CN(c2ccccc2OC)S(=O)(=O)c2cccs2)o1 | 107 | 110 | -8 | 4
37 | CN(C(=O)COC(=O)c1ccc(Cl)cc1O)C1CCS(=O)(=O)C1 (stereo not drawn) | 106 | 108 | 8 | -55
38 | COc1cccc(COC(=O)c2n[nH]c3ccccc23)c1 | 104 | 106 | 2 | 2
39 | CCOC(=O)c1cc2c(C)n(-c3ccccc3)c(C)c2cc(C(=O)OCC)c1=O | 97 | 109 | -2 | 0
40 | Cc1nn(C(=O)CCCC(=O)O)c2ccccc12 | 103 | 99 | -18 | 7
41 | CC(C)CCN(Cc1ccco1)C(=O)c1oc(=O)c2ccccc2c1-c1ccccc1 | 104 | 107 | -35 | -6
42 | COc1ccc(/C=C2/NC(=O)N(Cc3ccccc3F)C2=O)cc1 | 103 | 104 | 3 | 9
43 | CCC1CCCCN1C(=O)CSc1nnc(-c2cccs2)o1 (stereo not drawn) | 105 | 104 | -22 | 76
44 | C=C1N(c2cccc(Cl)c2)C(=O)OC1(C)C | 102 | 101 | -3 | -10
45 | CN(C)c1ccc(/C=N/N=C(N)N)cc1 | 103 | 101 | -45 | -257
46 | O=S(=O)(Nc1ccc(N2CCCCC2)cc1)c1ccccc1 | 108 | 127 | 3 | -9
47 | CCOc1ccc(CCNC(=O)c2cccnc2N2CCCC2)cc1OCC | 99 | 102 | 4 | -3
48 | O=C(COC(=O)c1c[nH]c(=O)[nH]c1=O)NCc1ccccc1 | 104 | 100 | -7 | 19
49 | S=c1nn[nH]n1C1CCCC1 | 101 | 109 | -8 | x
50 | Cc1[nH]c2ccccc2c1C(=O)CSc1ccccn1 | 104 | 98 | 2 | x
51 | COc1ccc(C)cc1NC(=O)N1CCC(C)CC1 | 101 | 98 | -37 | -4
52 | CCOC(=O)N1CCC(N(CCN(C)C)C(=S)Nc2cc(C)ccc2C)CC1 | 102 | 103 | -8 | -16
53 | O=C(CS(=O)(=O)c1cn(CC(=O)N2CCCC2)c2ccccc12)NCc1ccccc1 | 99 | 109 | -4 | -6
54 | COc1ccc(N=C/C(Br)=C/c2ccccc2)cn1 | 91 | 111 | x | -9
55 | O=C(CCSc1nc(-c2ccco2)cc(C(F)(F)F)n1)Nc1ccccc1 | 99 | 90 | -26 | 2
56 | COc1ccc(/C=C2\CCc3ccccc3C2=O)cc1CN1CCOCC1 | 102 | 99 | -7 | 8
57 | S=C1NCN(CCCn2ccnc2)CN1 | 103 | 100 | -20 | -1
58 | O=C(COC(=O)c1ccccc1SCC(=O)N1CCCC1)NCc1ccco1 | 101 | 104 | -3 | -2
59 | CC(=O)NC(C(=O)NCc1ccc(F)cc1)C(C)C (stereo not drawn) | 108 | 97 | -15 | -4
60 | O=C1CC(c2nc3ccccc3[nH]2)CN1c1cccc(C(F)(F)F)c1 (stereo not drawn) | 106 | 109 | -8 | -11
61 | O=C(c1nc2ncccn2n1)N(Cc1ccccc1)Cc1ccccc1 | 102 | 100 | -9 | 7
62 | Cc1ccc(-n2ncc3c(=O)[nH]c(SCc4ccccc4)nc32)cc1 | 105 | 97 | 4 | 10
63 | COc1ccccc1C(=O)N(c1ccccc1)C(C)C1CC1 (stereo not drawn) | 102 | 96 | x | -2
64 | CN(Cc1ccccc1)C(=O)c1cnn(-c2ccccc2)c1-n1cccc1 | 104 | 102 | -3 | -5
65 | CCCCCN1COc2ccc3c4c(c(=O)oc3c2C1)CCC4 | 103 | 97 | -25 | 123
66 | CC1CCc2c(sc3nc(CN4CCOCC4)nc(Sc4nccn4C)c23)C1 (stereo not drawn) | 103 | 90 | -2 | 14
67 | CC1CCCCN1C(=O)c1ccco1 (stereo not drawn) | 107 | 111 | 3 | -11
68 | CC(C)(C)c1cc(C(F)(F)F)nc(SCCCNC(=O)c2ccco2)n1 | 101 | 102 | -33 | -24
69 | COc1ccc2sc(N(CCN(C)C)C(=O)Cc3ccccc3)nc2c1 | 99 | 96 | -17 | -5
70 | CCc1ccccc1NC(=O)C1CCN(S(=O)(=O)c2cc(OC)ccc2OC)CC1 | 105 | 101 | -67 | -2
71 | Cc1cc(C)n(N)c(=O)c1C#N | 100 | 106 | -29 | -17
72 | CCCc1cc(=O)[nH]c(SCC(=O)N2CCCC2=O)n1 | 120 | 138 | 4 | 2
73 | OCC(O)C1OC(Nc2ccc(Br)cc2)C(O)C1O (stereo not drawn) | 99 | 103 | 7 | -5
74 | CCOc1ccc(OCCCN2CCN(C)CC2)cc1 | 101 | 102 | 11 | -4
75 | CC(C)(C)NC(=O)C1CC(=O)OC12CCCCC2 (stereo not drawn) | 104 | 101 | -23 | -13
76 | CCCN1c2ccccc2S(=O)(=O)c2ccccc21 | 101 | 104 | 12 | -9
77 | Cc1onc(-c2ccccc2Cl)c1C(=O)OC(c1ccccc1)C(F)(F)F (stereo not drawn) | 102 | 109 | -26 | -42
78 | COc1ccc(NC(=O)N2CCN(Cc3ccccc3Cl)CC2)cc1 | 99 | 89 | 8 | 2
79 | COc1ccccc1NC(=O)CN(Cc1ccco1)C(=O)Cn1nc(C(N)=O)c2ccccc2c1=O | 103 | 109 | -15 | -5
80 | O=C(CNC(=O)c1ccco1)Nc1ccc(Br)cc1 | 102 | 100 | -5 | -9
81 | N#CSc1cnc(NC2CCCCC2)s1 | 94 | 107 | -178 | 74*
82 | CCOc1ccc(OCCOn2nnc3ccccc32)cc1 | 101 | 107 | -38 | -12
83 | FC(F)(F)Oc1ccc(-c2nnc(-c3ccccc3Cl)o2)cc1 | 100 | 104 | -14 | 18
84 | CCCN(CCC)c1nc(SC)nc(-c2ccccc2)c1C#N | 101 | 103 | 0 | -3
85 | CC(C)CN(CC(C)C)C(=O)COc1ccccc1C(N)=O | 104 | 107 | 8 | -4
86 | COc1ccc(CCNC(=S)NC(=O)c2ccc(Cl)cc2Cl)cc1OC | 103 | 111 | -18 | -12
87 | CCCNC(=O)Nc1cc(S(=O)(=O)CC)ccc1O | 99 | 102 | -12 | 1
88 | CC(C)(C)C1(O)CC2OC(=O)CC23C(=O)OC2OC(=O)C(O)C231 (stereo not drawn) | 94 | 81 | -16 | x
89 | CN[C@@H]1C(OC2[C@H](O[C@H]3[C@H](O)[C@@H](O)[C@H](N=C(N)N)[C@@H](O)[C@@H]3N=C(N)N)OC(C)[C@]2(O)CO)OC(CO)C(O)C1O (stereo partly drawn) | 99 | 103 | 9 | -16
90 | CS(=O)(=O)c1ccc(Cl)c(Cl)c1 | 99 | 96 | x | -2

Shown as labelled records: entries from further up
(70) CCc1ccccc1NC(=O)C1CCN(S(=O)(=O)c2cc(OC)ccc2OC)CC1
- PV pol inh: 105
- PV pol inh intensity: 101
- MenB inh: -67
- Mtb MbtI inh: -2

(71) Cc1cc(C)n(N)c(=O)c1C#N
- PV pol inh: 100
- PV pol inh intensity: 106
- MenB inh: -29
- Mtb MbtI inh: -17

(listing goes on)
cpd | smiles | PV pol inh | PV pol inh intensity | MenB inh | Mtb MbtI inh
91 | CNC(=O)c1cnc2sc(N3CCCC3)nn2c1=O | 100 | 101 | 9 | 57
92 | CC(C)c1ccc(NS(=O)(=O)Cc2ccccc2)cc1 | 104 | 94 | 4 | x
93 | CCCc1ccno1 | 96 | 103 | 3 | 18
94 | COc1cccc(NC(=O)C2CC(=O)N(Cc3ccco3)C2)c1 (stereo not drawn) | 103 | 103 | -17 | -21
95 | NNc1nc(-c2ccccc2)cc(-c2ccccc2)n1 | 106 | 105 | x | -4
96 | O=c1ccc(=O)n(CNc2nccs2)[nH]1 | 96 | 104 | -18 | x

Given with one line to a screen: part of the list above
54) COc1ccc(N=C/C(Br)=C/c2ccccc2)cn1
55) O=C(CCSc1nc(-c2ccco2)cc(C(F)(F)F)n1)Nc1ccccc1
compound no.	54	55
PV pol inh	91	99
PV pol inh intensity	111	90
MenB inh	x	-26
Mtb MbtI inh	-9	2
